NOMO-1 viab: STK33 inhibitor candidate reducing NOMO-1 cell viability; NOMO-1 AML viability, CellTiter-Glo luminescence, 72 h; inhibition, % (no concentration beside the values); actives 7.5% (n = 37,000); AID 2330;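 active = most replicates above 80%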;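 also: wells of about 30 µL received 25 nL stock; 0% = median of vehicle wells and 100% = reference inhibitor level; the first replicate is given; inactives centre near 10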
* marks the source's active call; other numbers are inactive results. An excerpt, so the mix of outcomes need not match the whole.

| compound | NOMO-1 viab |
| --- | --- |
| C[C@@H]1CCCCO[C@@H](CN(C)C(=O)c2ccncc2)[C@@H](C)CN([C@H](C)CO)C(=O)c2cc(NC(=O)Cc3ccccc3)ccc2O1 | -6 |
| Cc1noc(C)c1S(=O)(=O)N(C)C[C@@H]1Oc2ccc(NC(=O)C3CC3)cc2CC(=O)N([C@H](C)CO)C[C@H]1C | -1 |
| C[C@H]1CN([C@@H](C)CO)C(=O)c2cccc(NC(=O)Nc3cccc4ccccc34)c2O[C@H]1CN(C)Cc1ccc(C(=O)Nc2ccccc2N)cc1 | 128* |
| Cc1cccc(NC(=O)CSc2nc3ccccc3c(=O)n2C)c1C | 44 |
| CC(C(=O)Nc1ccc(F)c(F)c1)N(c1ccc(Cl)cc1)S(C)(=O)=O (configuration not stated) | 51 |
| C[C@H]1CN([C@@H](C)CO)C(=O)Cc2cc(NS(=O)(=O)c3ccccc3)ccc2O[C@H]1CN(C)C(=O)Nc1ccc(C(F)(F)F)cc1 | 4 |
| CC(C)NC(=O)Nc1ccc2c(c1)C(=O)N([C@H](C)CO)C[C@H](C)[C@H](CN(C)Cc1ccc(-c3ccccc3)cc1)O2 | 5 |
| C[C@H]1CN([C@@H](C)CO)C(=O)c2cc(NC(=O)NC3CCCCC3)ccc2O[C@H]1CN(C)Cc1ccc(-c2ccccc2)cc1 | 8 |
| C[C@H]1CN([C@@H](C)CO)C(=O)c2cc(NC(=O)Nc3ccc4c(c3)OCO4)ccc2O[C@@H]1CN(C)S(=O)(=O)c1ccc(F)cc1 | -20 |
| COC(=O)c1c(NC(=O)C(C)Oc2ccccc2F)sc2c1CCC2 (configuration not stated) | 35 |
| Cc1ccc(S(=O)(=O)Nc2ccc3c(c2)C(=O)N([C@H](C)CO)C[C@H](C)[C@@H](CN(C)S(=O)(=O)c2c(C)noc2C)OCCCC[C@@H](C)O3)cc1 | 29 |
| C[C@H]1CN([C@@H](C)CO)C(=O)Cc2cc(NC(=O)Nc3ccccc3)ccc2O[C@@H]1CN(C)C(=O)Nc1ccc(C(F)(F)F)cc1 | 10 |
| Cc1noc(C)c1NC(=O)Nc1cccc2c1O[C@H](CN(C)S(=O)(=O)c1ccccc1)[C@@H](C)CN([C@H](C)CO)C2=O | -15 |
| Cc1cc(Br)ccc1NC(=O)CCN1C(=O)c2ccccc2S1(=O)=O | -3 |
| C[C@H]1CN([C@@H](C)CO)C(=O)Cc2cc(NS(=O)(=O)c3cn(C)cn3)ccc2O[C@H]1CN(C)C(=O)Nc1ccc2c(c1)OCO2 | 4 |
| C[C@H]1CN([C@@H](C)CO)C(=O)Cc2cc(NC(=O)Nc3ccc4c(c3)OCO4)ccc2O[C@@H]1CN(C)Cc1ccc(Cl)c(Cl)c1 | 59 |
| CCOc1ccc(-n2c(SCC(=O)N3CCOCC3)nnc2-c2ccncc2)cc1 | -17 |
| CC(=O)c1cccc(NC(=O)CN(c2ccc(F)c(Cl)c2)S(C)(=O)=O)c1 | 14 |
| Cc1ccc(S(=O)(=O)Nc2ccc3c(c2)C(=O)N([C@H](C)CO)C[C@@H](C)[C@H](CN(C)S(=O)(=O)c2cn(C)cn2)O3)cc1 | -6 |
| CC(C)NC(=O)Nc1ccc2c(c1)C(=O)N([C@@H](C)CO)C[C@@H](C)[C@@H](CN(C)S(=O)(=O)c1ccc(Cl)cc1)O2 | 4 |
| CC1(C)CC[C@]2(C(=O)O[C@@H]3O[C@H](CO)[C@@H](O)[C@H](O)[C@H]3O)CC[C@]3(C)C(=CCC4[C@@]5(C)C[C@@H](O)[C@H](O)[C@](C)(CO)C5CC[C@]43C)C2[C@@H]1O (some centres not stated) | 120* |
| C[C@@H]1CN([C@@H](C)CO)C(=O)c2cccc(NC(=O)Nc3ccccc3)c2O[C@H]1CN(C)Cc1ccncc1 | -10 |
| c1cncc(-c2nc3ccc4ccccc4c3c3c2CCCC3)c1 | 72 |
| CNC[C@H]1Oc2ccc(NC(=O)CCC(F)(F)F)cc2CC(=O)N([C@@H](C)CO)C[C@H]1C | 2 |
| COc1ccc(NC(=O)N(C)C[C@@H]2Oc3ccc(NS(=O)(=O)c4ccccc4)cc3CC(=O)N([C@H](C)CO)C[C@@H]2C)cc1 | 28 |

5 compounds drawn at random from those above, as already listed:
| compound | NOMO-1 viab |
| --- | --- |
| C[C@@H]1CN([C@@H](C)CO)C(=O)c2cccc(NC(=O)Nc3ccccc3)c2O[C@H]1CN(C)Cc1ccncc1 | -10 |
| Cc1cc(Br)ccc1NC(=O)CCN1C(=O)c2ccccc2S1(=O)=O | -3 |
| CC(C)NC(=O)Nc1ccc2c(c1)C(=O)N([C@@H](C)CO)C[C@@H](C)[C@@H](CN(C)S(=O)(=O)c1ccc(Cl)cc1)O2 | 4 |
| Cc1ccc(S(=O)(=O)Nc2ccc3c(c2)C(=O)N([C@H](C)CO)C[C@@H](C)[C@H](CN(C)S(=O)(=O)c2cn(C)cn2)O3)cc1 | -6 |
| C[C@H]1CN([C@@H](C)CO)C(=O)Cc2cc(NS(=O)(=O)c3ccccc3)ccc2O[C@H]1CN(C)C(=O)Nc1ccc(C(F)(F)F)cc1 | 4 |

Carrying on.
| compound | NOMO-1 viab |
| --- | --- |
| COc1ccc(S(=O)(=O)N(C)C[C@@H]2Oc3ccc(NC(=O)C4CC4)cc3CC(=O)N([C@H](C)CO)C[C@H]2C)cc1 | -18 |
| C[C@H]1CN([C@@H](C)CO)C(=O)c2cc(NC(=O)CCN3CCOCC3)ccc2O[C@H]1CN(C)Cc1ccc(C(=O)Nc2ccccc2N)cc1 | 29 |
| CC(C)(O)C1Oc2cc3occ(-c4ccc(O)cc4)c(=O)c3c(O)c2C1O (configuration not stated) | -7 |
| COc1ccc2c(c1)c(CC(=O)N1CCOCC1)c(C)n2C(=O)c1ccc(Cl)cc1 | 13 |
| C[C@H]1CN([C@@H](C)CO)C(=O)Cc2cc(NC(=O)Nc3ccc(C(F)(F)F)cc3)ccc2O[C@H]1CN(C)Cc1ccncc1 | 134* |
| C[C@H](CO)N1C[C@H](C)[C@@H](CN(C)Cc2ccccc2)Oc2ccc(NC(=O)Nc3ccc(C(F)(F)F)cc3)cc2C1=O | 122* |
| C[C@H](CO)N1C[C@H](C)[C@H](CN(C)Cc2ccc(C(=O)O)cc2)Oc2ccc(N(C)C)cc2C1=O | 3 |
| Cc1nccc(-c2cccc(NC(=O)Nc3ccccc3)c2)n1 | 44 |
| COc1ccc(S(=O)(=O)N(CC(N)=O)c2ccc(F)cc2)cc1 | 23 |
| CNC[C@H]1Oc2c(N)cccc2C(=O)N([C@@H](C)CO)C[C@H]1C | 1 |
| O=C(CSc1nc2c(c(=O)n1Cc1ccco1)C1(CCCC1)Cc1ccccc1-2)c1cccs1 | 7 |
| C[C@@H]1CN([C@H](C)CO)C(=O)c2cccc(NC(=O)C3CC3)c2O[C@H]1CN(C)C(=O)Nc1ccc(C(F)(F)F)cc1 | -3 |
| Cc1noc(C)c1NC(=O)N(C)C[C@@H]1Oc2ccc(NC(=O)Nc3cccc4ccccc34)cc2C(=O)N([C@H](C)CO)C[C@H]1C | -20 |
| O=C(CSc1ccc([N+](=O)[O-])cn1)N1CCc2ccccc21 | 24 |
| COc1ccc(CN(C)C[C@H]2Oc3c(NS(C)(=O)=O)cccc3C(=O)N([C@H](C)CO)C[C@H]2C)cc1 | -2 |
| C[C@@H]1CCCCO[C@@H](CN(C)C)[C@@H](C)CN([C@H](C)CO)C(=O)c2cc(NC(=O)Nc3ccc(C(F)(F)F)cc3)ccc2O1 | 22 |
| C[C@@H]1CN([C@@H](C)CO)C(=O)c2cc(NS(=O)(=O)c3ccccc3)ccc2O[C@@H]1CN(C)Cc1ccc(-c2ccccc2)cc1 | 115* |
| COc1cccc(C2CC(C(F)(F)F)n3ncc(C(=O)NCc4cccnc4)c3N2)c1 (configuration not stated) | -6 |
| Cn1c(SCC(=O)c2ccc([N+](=O)[O-])cc2)nnc1-c1cccnc1 | 26 |
| C[C@H](CO)N1C[C@H](C)[C@H](CN(C)C(=O)Nc2ccc3c(c2)OCO3)Oc2ccc(NC(=O)NC3CCCCC3)cc2C1=O | -1 |
| Cc1ccc(S(=O)(=O)N(C)C[C@@H]2Oc3c(NC(=O)Nc4ccccc4)cccc3C(=O)N([C@@H](C)CO)C[C@@H]2C)cc1 | 21 |
| O=c1onc(-c2cccc(Cl)c2)n1-c1ccccc1 | 12 |
| C[C@@H]1CN([C@@H](C)CO)C(=O)c2cccc(NC(=O)c3cnccn3)c2O[C@H]1CN(C)S(=O)(=O)c1cn(C)cn1 | -17 |
| C[C@H]1CN([C@@H](C)CO)C(=O)Cc2cc(NC(=O)Nc3cccc4ccccc34)ccc2O[C@@H]1CN(C)S(=O)(=O)c1ccc(F)cc1 | -38 |
| COc1ccc(NC(=O)Nc2ccc3c(c2)CC(=O)N([C@@H](C)CO)C[C@H](C)[C@H](CN(C)Cc2ccc(Oc4ccccc4)cc2)O3)cc1 | -5 |

(list continues)
| compound | NOMO-1 viab |
| --- | --- |
| C[C@@H]1CN([C@H](C)CO)C(=O)Cc2cc(NC(=O)Nc3ccc(C(F)(F)F)cc3)ccc2O[C@@H]1CN(C)Cc1ccc(C(=O)O)cc1 | 16 |
| COC(=O)c1ccccc1NC(=O)COc1ccc(Br)cc1C | -9 |
| Cc1ccc(OCC(=O)Nc2cc(-c3nc4ccc(C)cc4o3)ccc2Cl)c(C)c1 | 10 |
| C[C@@H]1CN([C@@H](C)CO)C(=O)c2cc(NS(=O)(=O)c3ccc(Cl)cc3)ccc2O[C@H]1CN(C)C | 26 |
| Cc1cc(C)nc(N/C(=N/S(=O)(=O)c2ccc(Br)cc2)N2CCC(C)CC2)n1 | 15 |
| COc1ccc(S(=O)(=O)N(C)C[C@@H]2Oc3ccc(NC(=O)Nc4c(C)noc4C)cc3CC(=O)N([C@@H](C)CO)C[C@@H]2C)cc1 | -5 |
| C[C@@H]1CN([C@@H](C)CO)C(=O)c2cccc(NS(=O)(=O)c3cn(C)cn3)c2O[C@H]1CN(C)C | -7 |
| Cc1noc(C)c1S(=O)(=O)Nc1cccc2c1O[C@H](CN(C)C)[C@H](C)CN([C@@H](C)CO)C2=O | 0 |
| C[C@H]1CN([C@@H](C)CO)C(=O)c2cccc(NC(=O)c3nc4ccccc4s3)c2O[C@@H]1CN(C)C(=O)Nc1ccc2c(c1)OCO2 | 18 |
| S=C(NC1CCCCC1)N1CCC(C2C=NC=N2)CC1 (configuration not stated) | 7 |
| COc1ccccc1-n1c(N)cc(=O)nc1SCC(=O)Nc1ccc(Br)cc1 | 34 |
| COc1ccc(S(=O)(=O)N2CCOCC2)cc1C(=O)Nc1ccc(S(=O)(=O)C(F)F)cc1 | 9 |
| Cc1cc(C(F)(F)F)nc(SCC(=O)c2cccc([N+](=O)[O-])c2)n1 | -9 |
| COc1ccc(C)cc1S(=O)(=O)N(CC(N)=O)c1ccc(Cl)cc1 | 4 |
| CNCC(O)Cn1c2ccccc2c2ccccc21 (configuration not stated) | 7 |
| C=C1C(=O)O[C@H]2C(=C)[C@@H](CCC(=O)O)[C@@H](C)CC[C@@H]12 | 63 |
| Cn1c(SCC(=O)NC23CC4CC(CC(C4)C2)C3)nnc1-c1cccc([N+](=O)[O-])c1 | 29 |
| CC1(C)CC(n2c(SCC(N)=O)nc3c(c2=O)C2(CCCC2)Cc2ccccc2-3)CCO1 (configuration not stated) | 34 |
| CCOc1ccccc1NC(=O)C1CC(=O)n2ncnc2N1 (configuration not stated) | -19 |
| C[C@H](CO)N1C[C@H](C)[C@@H](CN(C)Cc2ccc3c(c2)OCO3)Oc2c(NS(=O)(=O)c3ccc(F)cc3)cccc2C1=O | -8 |
| COc1cc(OC)cc(OCC(O)Cn2cnc3ccccc32)c1 (configuration not stated) | 22 |
| C[C@H](CO)N1C[C@H](C)[C@@H](CN(C)Cc2ccc(Cl)c(Cl)c2)Oc2c(NS(=O)(=O)c3ccc(F)cc3)cccc2C1=O | 19 |
| COc1ccc(S(=O)(=O)N(C)C[C@@H]2Oc3ccc(NC(=O)Nc4ccc5c(c4)OCO5)cc3CC(=O)N([C@H](C)CO)C[C@@H]2C)cc1 | 114* |
| C[C@H](CO)N1C[C@H](C)[C@H](CN(C)S(=O)(=O)c2ccc(Cl)cc2)Oc2c(NS(=O)(=O)c3ccc(F)cc3)cccc2C1=O | 2 |
| C[C@@H]1CN([C@@H](C)CO)C(=O)Cc2cc(NC(=O)Nc3ccc(F)cc3)ccc2O[C@@H]1CN(C)Cc1ccc(-c2ccccc2)cc1 | 66 |

4 entries from above, field by field:
CC1(C)CC(n2c(SCC(N)=O)nc3c(c2=O)C2(CCCC2)Cc2ccccc2-3)CCO1 (configuration not stated)
  NOMO-1 viab: 34

CCOc1ccccc1NC(=O)C1CC(=O)n2ncnc2N1 (configuration not stated)
  NOMO-1 viab: -19

C[C@H](CO)N1C[C@H](C)[C@@H](CN(C)Cc2ccc3c(c2)OCO3)Oc2c(NS(=O)(=O)c3ccc(F)cc3)cccc2C1=O
  NOMO-1 viab: -8

COc1cc(OC)cc(OCC(O)Cn2cnc3ccccc32)c1 (configuration not stated)
  NOMO-1 viab: 22

Further results.
| compound | NOMO-1 viab |
| --- | --- |
| COc1ccc(NC(=O)N(C)C[C@@H]2Oc3c(NC(=O)C4CCCCC4)cccc3C(=O)N([C@H](C)CO)C[C@@H]2C)cc1 | 11 |
| Cc1ccc(S(=O)(=O)Nc2ccc3c(c2)C(=O)N([C@H](C)CO)C[C@H](C)[C@@H](CN(C)S(=O)(=O)c2ccc(F)cc2)OCCCC[C@@H](C)O3)cc1 | 48 |
| Cc1noc(C)c1NC(=O)Nc1cccc2c1O[C@H](CN(C)S(=O)(=O)c1ccc(F)cc1)[C@@H](C)CN([C@H](C)CO)C2=O | 22 |
| C[C@@H]1CN([C@@H](C)CO)C(=O)c2cc(NC(=O)c3ccncc3)ccc2O[C@H]1CN(C)C(=O)Nc1ccc2c(c1)OCO2 | -10 |
| COc1ccc(NC(=O)CCCN2C(=O)c3ccccc3C2=O)cc1Cl | -13 |
| CCOC(=O)c1c(NC(=O)COc2ccccc2Br)sc(C)c1C | -2 |
| COc1ccc(S(=O)(=O)Nc2ccc3c(c2)C(=O)N([C@H](C)CO)C[C@H](C)[C@H](CN(C)S(=O)(=O)c2ccc(OC)cc2)O3)cc1 | 20 |
| C[C@H]1CN([C@@H](C)CO)C(=O)Cc2cc(NC(=O)Nc3ccc(F)cc3)ccc2O[C@H]1CN(C)Cc1ccc(Cl)c(Cl)c1 | 127* |

Screening data from PubChem BioAssay.
